Vaccinia inh: blocks a specific stage of Vaccinia orthopoxvirus infection; Vaccinia-infected cells, mCherry/Venus stage reporter fluorescence; active compounds read low; some inactives read as strong as hits; activity change (mCherry), % (no concentration beside the values); 89,000 tested, 0.01% active;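 active = mCherry past -33% and 40 or more points under the early reporter, replicates agreeing; inconclusive = past -33% without that gap or agreement; tested in A549 cells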;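 also: scaled between vehicle wells and reference inhibitor wells; 23 nL library stock went into each well; one replicate is shown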
Vaccinia inh Venus: further read-out of Vaccinia inh, marked with its call; activity change (Venus), %; measured here: Venus reporter, other viral stage;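 negative = less Venus signal; first of two replicates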
* marks the source's active call; other numbers are inactive results; ? = inconclusive; · = not tested or not shown. An excerpt. The share of hits here may be higher or lower than overall.

cpd	Molecule	Vaccinia inh Venus	Vaccinia inh
1	COCC(=O)N1CC(=O)N2[C@H](C1)[C@H](c1ccc(C#CC(C)C)cc1)[C@@H]2CO	-1.0	2.9
2	Cc1ccc(S(=O)(=O)Nc2cccc3c2O[C@@H](CN(C)S(=O)(=O)c2ccc(Cl)cc2)[C@H](C)CN([C@H](C)CO)C3=O)cc1	13.7	11.1
3	C[C@H](CO)N1C[C@H](C)[C@H](CN(C)CC2CCOCC2)Oc2ncc(C#C[C@@H](C)O)cc2C1=O	-1.2	-5.0
4	CCCNC(=O)N(C)C[C@@H]1Oc2ncc(C#CC3CC3)cc2C(=O)N([C@@H](C)CO)C[C@H]1C	2.6	14.6
5	Cc1cc(C(=O)Nc2cccc3c2O[C@@H](CN(C)C(=O)NC2CCCCC2)[C@@H](C)CN([C@H](C)CO)C3=O)n(C)n1	-3.6	-2.0
6	Cc1ccc(S(=O)(=O)N2C[C@@H](O)COC[C@@H]3O[C@H](CC(=O)NCc4ccc(Cl)c(Cl)c4)CC[C@H]32)cc1	·	?
7	Cc1ccc(OC(=O)N(C)C[C@@H]2OCc3cnnn3CCCC(=O)N([C@H](C)CO)C[C@H]2C)cc1	14.2	14.4
8	CC(C)NC(=O)Nc1ccc2c(c1)CC(=O)N([C@@H](C)CO)C[C@@H](C)[C@H](CN(C)Cc1ccc(C(F)(F)F)cc1)O2	-25.7	-32.2
9	C[C@H]1CN([C@@H](C)CO)C(=O)Cc2cc(NC(=O)Nc3ccc(C(F)(F)F)cc3)ccc2O[C@@H]1CN(C)C(=O)Nc1cccc2ccccc12	11.4	2.7
10	C[C@@H]1CN([C@@H](C)CO)C(=O)Cc2cc(NC(=O)Nc3ccccc3)ccc2O[C@H]1CN(C)CC1CCCCC1	·	?
11	C[C@@H]1CN([C@H](C)CO)C(=O)Cc2cc(NS(=O)(=O)c3ccccc3)ccc2O[C@@H]1CN(C)C(=O)Nc1ccc(C(F)(F)F)cc1	6.7	6.9
12	Cc1ccc(S(=O)(=O)N(C)C[C@@H]2Oc3ccc(NS(=O)(=O)c4ccc(Cl)cc4)cc3CC(=O)N([C@@H](C)CO)C[C@@H]2C)cc1	-15.5	-30.0
13	O=C(C[C@H]1C[C@@H]2c3cc(NC(=O)Cc4ccncc4)ccc3O[C@@H]2[C@@H](CO)O1)NCCN1CCCCC1	-1.7	-4.9
14	COC(=O)[C@@H]1[C@@H](CO)[C@@H]2Cn3c(ccc(-c4ccccc4F)c3=O)[C@H]1N2C(=O)C1CC1	7.7	8.9
15	C[C@@H]1CN([C@@H](C)CO)C(=O)c2cc(NC(=O)CCCN(C)C)ccc2O[C@@H](C)CCCCO[C@@H]1CN(C)S(=O)(=O)c1ccccc1	4.0	22.1
16	COc1ccc(S(=O)(=O)Nc2ccc3c(c2)C(=O)N([C@H](C)CO)C[C@H](C)[C@@H](CN(C)Cc2ccc(-c4ccccc4)cc2)O3)cc1	-14.5	-29.4
17	C[C@@H]1CCCCO[C@@H](CN(C)C(=O)c2ccccc2)[C@H](C)CN([C@H](C)CO)C(=O)c2cc(NC(=O)Nc3ccc(C(F)(F)F)cc3)ccc2O1	6.6	-17.6
18	C[C@H]1CN([C@@H](C)CO)C(=O)c2cccc(NS(C)(=O)=O)c2O[C@@H]1CN(C)C(=O)Nc1ccc2c(c1)OCO2	11.8	10.5
19	COCC#Cc1ccc2c(c1)O[C@@H](CN(C)C)[C@@H](C)CN([C@H](C)CO)S2(=O)=O	2.9	8.1
20	C[C@H]1CN([C@@H](C)CO)C(=O)Cc2cc(NC(=O)Nc3ccc(C(F)(F)F)cc3)ccc2O[C@@H]1CN(C)Cc1ccc2c(c1)OCO2	-4.7	-7.1

Reformatted with values under each structure: four of the compounds above.
Value order – Vaccinia inh Venus | Vaccinia inh
1. COCC(=O)N1CC(=O)N2[C@H](C1)[C@H](c1ccc(C#CC(C)C)cc1)[C@@H]2CO
→ -1.0 | 2.9
6. Cc1ccc(S(=O)(=O)N2C[C@@H](O)COC[C@@H]3O[C@H](CC(=O)NCc4ccc(Cl)c(Cl)c4)CC[C@H]32)cc1
→ · | ?
4. CCCNC(=O)N(C)C[C@@H]1Oc2ncc(C#CC3CC3)cc2C(=O)N([C@@H](C)CO)C[C@H]1C
→ 2.6 | 14.6
18. C[C@H]1CN([C@@H](C)CO)C(=O)c2cccc(NS(C)(=O)=O)c2O[C@@H]1CN(C)C(=O)Nc1ccc2c(c1)OCO2
→ 11.8 | 10.5

Carrying on.
cpd	Molecule	Vaccinia inh Venus	Vaccinia inh
21	C=CC[C@]1(C(=O)OC)COC(c2ccc(OCCCO)cc2)=N1	3.1	5.3
22	C[C@@H]1CN([C@H](C)CO)C(=O)c2cccc(NS(=O)(=O)c3ccc(F)cc3)c2O[C@@H]1CN(C)S(=O)(=O)c1ccccc1	4.5	5.2
23	C[C@@H]1CN([C@H](C)CO)S(=O)(=O)c2ccc(-c3ccccc3)cc2O[C@H]1CN(C)C(=O)Cc1ccccc1	-27.6	-32.7
24	CNC[C@H]1Oc2ncc(-c3ccccc3F)cc2C(=O)N([C@H](C)CO)C[C@H]1C	-10.1	-17.1
25	O=C(O)C[C@@H]1C[C@H]2c3cc(NC(=O)Nc4ccccc4F)ccc3O[C@H]2[C@H](CO)O1	5.2	4.1
26	C[C@@H]1CN([C@H](C)CO)C(=O)Cc2cc(NC(=O)NC3CCCCC3)ccc2O[C@@H]1CN(C)S(C)(=O)=O	15.6	23.5
27	COc1cccc(CNC(=O)C[C@@H]2CC[C@H](NS(=O)(=O)c3ccccc3OC)[C@H](CO)O2)c1	-12.8	-9.6
28	Cc1ccc(S(=O)(=O)Nc2ccc3c(c2)C(=O)N([C@@H](C)CO)C[C@H](C)[C@H](CN(C)S(C)(=O)=O)O3)cc1	15.7	14.7
29	C[C@@H]1CN([C@H](C)CO)C(=O)c2cc(-c3cccnc3)cnc2O[C@@H]1CN(C)C(=O)Cc1cccnc1	7.8	14.2
30	O=C(C[C@H]1CC[C@H]2[C@@H](COC[C@@H](O)CN2CC2CC2)O1)NCC1CC1	0.4	-8.5
31	O=C(C[C@@H]1C[C@@H]2c3cc(NC(=O)Nc4ccc(C(F)(F)F)cc4)ccc3O[C@@H]2[C@@H](CO)O1)NCc1cccnc1	-4.2	-4.8
32	C[C@H]1CN([C@@H](C)CO)C(=O)Cc2cc(NC(=O)C3CCCCC3)ccc2O[C@@H]1CN(C)CC1CC1	7.1	1.2
33	CN1c2ccc(C#Cc3ccc(F)cc3)cc2[C@@H]2[C@@H](CCN2C(=O)CN2CCOCC2)[C@H]1CO	0.8	2.8
34	C[C@@H]1CN([C@@H](C)CO)C(=O)Cc2cc(NC(=O)C3CCCCC3)ccc2O[C@H]1CN(C)Cc1ccc2c(c1)OCO2	·	?
35	CCC(=O)N1[C@H](CO)[C@H](c2ccc(C3=CCCCC3)cc2)[C@@H]1CNC1CCCC1	-13.8	-25.5
36	Cc1cccc(S(=O)(=O)N2C[C@@H]3[C@H](c4ccccc42)[C@@H](CO)N3C(=O)CC2CC2)c1	-3.8	-7.3
37	O=C(c1ccncc1)N1C[C@H]2[C@@H](c3ccccc31)[C@@H](CO)N2C(=O)c1ccncc1	2.0	10.7
38	C[C@@H]1CCc2cnnn2COC[C@@H](Cc2ccccc2)NC1=O	5.3	13.2
39	C[C@H]1CN([C@@H](C)CO)C(=O)Cc2cc(NC(=O)CCN3CCOCC3)ccc2O[C@@H]1CN(C)S(C)(=O)=O	11.9	12.2
40	O=C(Cc1ccccn1)N1CC(=O)N2[C@@H](CO)[C@H](c3ccc(C#CCC4CCCC4)cc3)[C@@H]2C1	-19.1	-24.2
41	C[C@@H]1CN([C@H](C)CO)C(=O)c2cc(-c3cccc(F)c3)cnc2O[C@@H]1CN(C)Cc1ccccn1	2.8	11.2
42	COc1ccc(NC(=O)Nc2cccc3c2O[C@H](CN(C)Cc2ccc(C(F)(F)F)cc2)[C@@H](C)CN([C@H](C)CO)C3=O)cc1	6.8	-6.4
43	C[C@@H]1CCCCO[C@H](CN(C)C(=O)c2ccccc2)[C@@H](C)CN([C@H](C)CO)C(=O)c2cc(NC(=O)CCCN(C)C)ccc2O1	13.1	12.4
44	CO[C@@H]1CN(C)C(=O)c2cc(NC(=O)Nc3cccc(F)c3)ccc2OC[C@@H](C)NC[C@H]1C	-7.8	-19.6
45	C[C@@H]1CCCCO[C@H](CN(C)Cc2ccc(C(F)(F)F)cc2)[C@H](C)CN([C@@H](C)CO)C(=O)c2cc(NC(=O)CCC(F)(F)F)ccc2O1	·	?
46	C[C@@H]1CN([C@H](C)CO)C(=O)c2cc(NC(=O)CCC(F)(F)F)ccc2O[C@@H](C)CCCCO[C@@H]1CN(C)Cc1ccccc1	·	?
47	Cc1noc(C)c1NC(=O)N(C)C[C@@H]1OCCCC[C@@H](C)Oc2ccc(NS(=O)(=O)c3ccc(F)cc3)cc2C(=O)N([C@@H](C)CO)C[C@H]1C	8.1	8.7
48	CCC(=O)N1[C@@H]2c3ccc(C4=CCCC4)c(=O)n3C[C@@H]2[C@@H](CO)[C@@H]1C(=O)NCc1ccc(F)cc1	-3.6	-4.1
49	COc1cccc(NC(=O)N2C[C@H](O)COC[C@H]3O[C@H](CC(=O)NC4CCCC4)CC[C@@H]32)c1	4.3	9.3
50	COC(=O)[C@@H]1[C@@H](CO)[C@@H]2Cn3c(ccc(-c4ccccc4F)c3=O)[C@@H]2N1CC1CCOCC1	-1.1	-9.8
51	COc1ccc(S(=O)(=O)N2CCC3(CC2)CN(C(=O)c2cccnc2)[C@@H](CO)c2c3c3ccc(OC)cc3n2C)cc1	-15.4	-24.3
52	C[C@H]1CN([C@@H](C)CO)C(=O)c2cc(C#CC3CC3)cnc2O[C@@H]1CN(C)Cc1ccncc1	-0.6	4.3
53	COc1ccc(C#Cc2cnc3c(c2)C(=O)N([C@H](C)CO)C[C@@H](C)[C@@H](CN(C)CC2CCCC2)O3)cc1	·	?
54	C[C@@H]1CN([C@@H](C)CO)C(=O)c2cc(C#CCN(C)C)cnc2O[C@@H]1CN(C)C(=O)c1cccnc1	12.5	35.3
55	C[C@@H]1CN([C@@H](C)CO)C(=O)c2cc(C#CC(C)(C)O)cnc2O[C@@H]1CN(C)C(=O)C1CCC1	10.8	11.9
56	C[C@H](CO)N1C[C@H](C)[C@@H](CN(C)C(=O)c2ccc3c(c2)OCO3)Oc2cc(-c3cncnc3)ccc2S1(=O)=O	10.4	11.7
57	O=C(NCC[C@@H]1CC[C@@H](NS(=O)(=O)c2ccccc2F)[C@@H](CO)O1)c1ccc(F)cc1	1.2	2.6
58	C[C@H](CO)N1C[C@H](C)[C@@H](CN(C)CC2CC2)Oc2ccc(NC(=O)Nc3ccc(F)cc3)cc2CC1=O	-16.3	-15.4
59	N#C[C@@H]1[C@@H](c2ccccc2C2=CCCCC2)[C@H](CO)N1C(=O)NC1CCCCC1	-20.7	-31.2
60	CNC[C@@H]1Oc2ccc(NC(=O)Nc3c(C)noc3C)cc2CC(=O)N([C@@H](C)CO)C[C@@H]1C	1.6	8.0
61	O=C1CN(S(=O)(=O)c2cccc(F)c2)C[C@H]2[C@H](c3ccc(-c4ccc(F)cc4)cc3)[C@H](CO)N12	-2.1	-0.7
62	Cc1noc(C)c1S(=O)(=O)Nc1ccc2c(c1)C(=O)N([C@@H](C)CO)C[C@@H](C)[C@H](CN(C)Cc1ccc(C(=O)O)cc1)OCCCC[C@H](C)O2	2.1	7.2
63	COc1ccc(S(=O)(=O)N(C)C[C@@H]2Oc3ccc(NC(=O)CCN4CCOCC4)cc3CC(=O)N([C@H](C)CO)C[C@H]2C)cc1	16.5	5.8
64	C[C@@H]1CN([C@@H](C)CO)C(=O)Cc2cc(NS(=O)(=O)c3cn(C)cn3)ccc2O[C@H]1CN(C)Cc1ccccc1	2.2	2.3
65	C[C@@H]1CN([C@H](C)CO)C(=O)c2cc(C#Cc3cccnc3)cnc2O[C@@H]1CN(C)Cc1ccncc1	6.5	10.7
66	CO[C@@H]1CC[C@H]2CCN(C)C(=O)[C@H](C)CN(C)C(=O)c3cccc(C#N)c3OC[C@@H]1O2	10.1	21.4
67	C[C@H](O)C#Cc1ccc2c(c1)O[C@@H](CN(C)Cc1ccncc1)[C@H](C)CN([C@@H](C)CO)S2(=O)=O	-11.4	-5.7
68	COc1ccc(S(=O)(=O)Nc2ccc3c(c2)CC(=O)N([C@@H](C)CO)C[C@@H](C)[C@@H](CN(C)S(=O)(=O)c2c(C)noc2C)O3)cc1	9.3	12.5
69	C[C@@H]1CN([C@@H](C)CO)C(=O)c2cc(NS(=O)(=O)c3cn(C)cn3)ccc2O[C@@H](C)CCCCO[C@H]1CN(C)S(=O)(=O)c1cn(C)cn1	7.0	14.9
70	C[C@@H]1CN([C@H](C)CO)C(=O)c2cc(-c3ccc(F)cc3)cnc2O[C@@H]1CN(C)C(=O)c1ccccc1F	-0.3	9.6
71	CC=Cc1ccc2n(c1=O)C[C@H]1[C@H](CO)[C@@H](C(=O)N(C)C)[C@@H]2N1CC1CCCCC1 (mixture of isomers)	7.0	8.4
72	O=C(NCCN1CCCC1)[C@@H]1[C@@H](CO)[C@@H]2Cn3c(cccc3=O)[C@H]1N2C(=O)NC1CCCC1	8.3	15.9
73	C[C@@H]1CN([C@@H](C)CO)C(=O)c2cc(NS(=O)(=O)c3cn(C)cn3)ccc2O[C@H]1CN(C)Cc1ccc(C(=O)O)cc1	5.5	14.2
74	O=C(Cc1ccccc1)N1C[C@H]2[C@@H](c3ccccc31)[C@@H](CO)N2C(=O)C1CCCCC1	-8.2	-8.8
75	COCC#Cc1ccc2c(c1)O[C@H](CN(C)Cc1ccccn1)[C@H](C)CN([C@H](C)CO)S2(=O)=O	-1.3	4.6
76	O=S(=O)(N[C@@H]1CC[C@H](CCn2cc(-c3ccccn3)nn2)O[C@@H]1CO)c1cccc(Cl)c1	0.7	-9.3
77	C/C=C/c1ccc([C@@H]2[C@H]3CN(Cc4ccc(F)cc4)CC(=O)N3[C@H]2CO)cc1	-2.4	-3.1

Assay outcomes: PubChem, Broad Institute
